Compound activity as filed in PubChem BioAssay.
Mtb H37Rv = Mycobacterium tuberculosis H37Rv growth inhibition, cell based, confirmatory dose response (AID 1949). M. tuberculosis H37Rv growth inhibition. most inactive calls were filed without a number and no value below 0 was filed. one-dose inhibition, % at 10 µg/mL; IC50 in µg/mL for titrated hits. 1.6% of 100,000 active;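 active means confirmed in a dose series; inconclusive means about 50% or more but not retested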;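 further: bacteria grown 7 days with compound before Alamar blue readout; 0% = untreated bacteria and 100% = reference antibiotic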
* = called active by the depositor; i = inactive; ? = inconclusive.

#	SMILES	Mtb H37Rv
1	O=C1CC(N2CCc3ccccc3C2)C(=O)N1c1ccc([N+](=O)[O-])cc1 (centres undefined)	i
2	Cc1ccccc1-c1noc(-c2ccncc2)n1	i
3	O=C(Nc1cc(Cl)cc(Cl)c1)c1c(F)c(F)c(F)c(F)c1F	27%
4	Cc1csc(Nc2ccc(Cl)cc2)n1	i
5	Oc1ccc(C(=S)N2CCCC2)cc1Cl	i
6	CN1CCN(CC(=O)c2cc(C(C)(C)C)c(O)c(C(C)(C)C)c2)CC1	i
7	Cc1cccc(-c2nc3ccccc3c(=O)n2N)c1	3%
8	CCOC(=O)Nc1sc(-c2ccccc2)cc1C(=O)OCC	i
9	O=[N+]([O-])c1cccc(NC(=S)Nc2ccc(Cl)c(C(F)(F)F)c2)c1	2.6µg/mL*
10	CCCCc1cc(=O)oc2cc(OC(C)C(=O)O)ccc12 (centres undefined)	i
11	O=C(CN1CCCC1=O)NC1(C(F)(F)F)NC(=O)N(C2CCCC2)C1=O (centres undefined)	i
12	CCOc1ccc(OCc2cccc(C(=O)OC)c2)cc1	1%

Later entries:
#	SMILES	Mtb H37Rv
13	Cc1ccc(OCC(=O)Oc2ccc3ccccc3c2)c(Br)c1	i
14	CC1CCCCN1C(=O)c1ccc(I)o1 (centres undefined)	i
15	OCCCc1ccc(C(O)(C(F)(F)F)C(F)(F)F)o1	3%
16	CCCC(C)NC(=O)C1CCN(S(C)(=O)=O)CC1 (centres undefined)	1%
17	CCC(=O)Nc1cccc(NC(=S)NC(=O)c2ccc(-c3ccccc3)cc2)c1	2%
18	O=C(CN(Cc1ccccc1)S(=O)(=O)c1ccc(F)cc1)NCc1ccco1	i
19	CCc1cc2c(=O)c(Oc3cnn(-c4ccccc4)c3)coc2cc1OCC(=O)OC	50%
20	COC(=O)c1cc(NC(=O)CN(c2ccc(OC)cc2)S(C)(=O)=O)ccc1Cl	i
21	COc1ccc(-c2ccc(CCC(=O)O)n2C(C)C)cc1	i
22	O=C(Cc1ccc(-c2ccccc2)cc1)N1CCN(c2ccccn2)CC1	i
23	Cc1ccc(NC(=O)CN(C)S(=O)(=O)c2ccc(F)cc2)c(C)c1	i
24	C=CCN1C(=S)N(c2ccc(Cl)cc2)C2CS(=O)(=O)CC21 (centres undefined)	i

The list goes on:
#	SMILES	Mtb H37Rv
25	CCOC(=O)c1cc(Cc2ccccc2)sc1NC(=S)Nc1ccc(Br)cn1	6%
26	COc1ccc(OC(C)C(=O)N2CCN(Cc3ccc4c(c3)OCO4)CC2)cc1 (centres undefined)	i
27	OC(CNCc1ccccc1F)c1ccccc1 (centres undefined)	i
28	C[C@@H](NC(=O)C1CCN(Cc2cccc(Cl)c2)CC1)c1ccccc1	i
29	O=C(NCCCn1ccnc1)c1cnn2c(C(F)F)cc(-c3ccccc3)nc12	i
30	O=C1Nc2ccc(S(=O)(=O)Nc3ccc(O)c(Cl)c3)c3cccc1c23	1%
31	CCC(Sc1nccn1C)C(=O)Nc1ccc(S(N)(=O)=O)cc1 (centres undefined)	i
32	C#CCN1C(=O)C(O)(CC(=O)c2ccc(-n3cccc3)cc2)c2cc(Br)ccc21 (centres undefined)	5%
33	O=C(CSc1nnnn1-c1ccccc1)Nc1ccccc1C(=O)c1ccccc1	i
34	COc1cc(C(=S)N2CCOCC2)cc(Cl)c1OC(=O)c1ccc([N+](=O)[O-])cc1	i
35	CCN1C(=O)C(O)(CC(=O)c2ccco2)c2ccccc21 (centres undefined)	i
36	Cc1n[nH]c(C)c1Cc1ccc(C(=O)O)cc1	i

Continuation:
#	SMILES	Mtb H37Rv
37	N#Cc1cc2cccc([N+](=O)[O-])c2cc1C#N	25%
38	COc1ccc(N2CCN(C(=O)C3CCN(S(C)(=O)=O)CC3)CC2)cc1	i
39	CCOc1ccc(OCc2ccc(C(=O)N3CCCC(C)C3)cc2)cc1 (centres undefined)	?
40	CCn1c(SCC(=O)Nc2ccc(OC)cc2)nnc1-c1ccc(Cl)cc1Cl	i
41	Cc1ccc(-c2ccc(CCC(=O)O)n2-c2ccc(C(N)=O)cc2)cc1	i
42	Cc1nnc(SCC(=O)N2CCc3ccccc32)s1	0%
43	COC(=O)c1ccc(C2C(Oc3ccccc3)C(=O)N2CCc2ccc(F)cc2)cc1 (centres undefined)	i
44	Cc1ccc(-c2nnc(SCc3ccc([N+](=O)[O-])cc3)o2)cc1	4%
45	COC(=O)Cc1c(C)c2ccc(OCC=C(C)C)c(C)c2oc1=O	6%
46	COc1ccc(-n2c(-c3cccc(Cl)c3)n[nH]c2=S)cc1	i
47	O=C(COc1ccc(Cl)cc1)Nc1sc2c(c1C(=O)NC1CCS(=O)(=O)C1)CCCC2 (centres undefined)	i
48	O=C(Nc1ccc(C(=O)OC2CCCCC2)cc1)c1ccncc1	?

Remaining list, next part.
#	SMILES	Mtb H37Rv
49	CC1CCN(CCCOc2ccc(Cl)c(Cl)c2)CC1	i
50	S=C(NCc1ccco1)NNC(=S)NC1CCCCC1	12%
51	c1ccc(Cc2nnc3sc(-c4ccncc4)nn23)cc1	1%
52	CCC(=O)Nc1ccc(Cl)c(NC(=O)c2ccc3c(c2)OCO3)c1	9%
53	Cc1cc(Cl)ccc1NC(=S)NC(C)(C)C	i
54	O=c1[nH]c(SCc2cccc(Cl)c2)nc2ccccc12	i
55	CCC(=O)N(c1nc(-c2ccc(C)cc2)c(C)s1)c1ccccc1OC	2%
56	Cc1cc(C)n2c(SCC(C)(C)NS(=O)(=O)c3ccccc3)nnc2n1	i
57	COc1ccc(CCN2CCCn3c2nc2c3c(=O)[nH]c(=O)n2C)cc1OC	i
58	CCc1cc(=O)oc2cc(OCc3cc(OC)c(OC)c(OC)c3)ccc12	i
59	CCN(CC)C(=O)Cc1cc(C(=O)O)c2ccccc2n1	i
60	Cc1ccc(OCc2nc(C#N)c(NCCCN3CCOCC3)o2)cc1	i

Continuation.
#	SMILES	Mtb H37Rv
61	CCCSc1nnc(-c2ccccc2NC(=O)CC)c(=O)[nH]1	i
62	COc1ccc(-c2cc(C(F)F)n3ncc(C(=O)n4ccnc4C)c3n2)cc1	i
63	Cc1ccnc(SC2CC(=O)N(c3ccc(F)cc3)C2=O)n1 (centres undefined)	i
64	Nc1cc(=O)[nH]c(SCC(=O)Nc2nc(-c3ccccc3)cs2)n1	i
65	CC(=O)c1ccccc1OCc1ccc(F)cc1	i
66	COc1ccc(NC(=O)COc2ccc(Cl)cc2Br)c(OC)c1	i
67	CCOc1ccc(OCCCCN2CCN(C)CC2)cc1	i
68	CC(C)NC(=O)Cn1cc(C(=O)c2ccccc2F)c2ccccc21	i
69	CCCCN(C)CCOc1ccccc1OCC	i
70	CCOc1ccc(-c2[nH]ncc2C=O)cc1Cl	0%
71	CCOC(=O)c1cccc(NC(=S)Nc2ccc(Cl)cc2Cl)c1	i
72	CC(=O)Oc1ccc(C(=O)NC(C)c2ccccc2)cc1 (centres undefined)	i

The final three records of the part before come first, to join the parts.
#	SMILES	Mtb H37Rv
70	CCOc1ccc(-c2[nH]ncc2C=O)cc1Cl	0%
71	CCOC(=O)c1cccc(NC(=S)Nc2ccc(Cl)cc2Cl)c1	i
72	CC(=O)Oc1ccc(C(=O)NC(C)c2ccccc2)cc1 (centres undefined)	i
73	CC(C)C(=O)Nc1ccc2c(c1)C(=O)N(CCC(=O)O)C2=O	i
74	Cc1ccc(N(Cc2ccccc2)S(=O)(=O)c2ccc(Cl)cc2)cc1	i
75	Cc1ccc(S(=O)(=O)N(CC(=O)Nc2ccc(Cl)cc2Cl)Cc2ccccc2)cc1	19%
76	CC1CCc2c(sc(NC(=O)c3c(F)cccc3F)c2C#N)C1 (centres undefined)	4%
77	COc1ccccc1NC(=S)Nc1ccc(Cl)cc1Cl	i
78	CCC(C)NC(=O)c1ccccc1NC(=O)CN(c1cccc(Br)c1)S(C)(=O)=O (centres undefined)	i
79	CS(=O)(=O)N(CC(=O)N1CCN(c2ccc(F)cc2)CC1)C1CCCCC1	1%
80	COC(=O)CCSc1nc2sc3c(c2c(=O)n1-c1cccc(C)c1)CC(C)(C)OC3	i
81	COc1ccccc1CNc1ccc(CNc2ncn[nH]2)cc1	i
82	CC(=O)N1CCC(C(=O)Nc2nc(-c3ccccc3)ns2)CC1	i
83	CCC(C)(C)C(=O)Nc1ccc(Br)cc1	1%
84	COC(=O)c1ccccc1NC(=O)CSc1nc2sc(C)c(C)c2c(=O)n1-c1ccccc1	i

Later entries
#	SMILES	Mtb H37Rv
85	COc1cc(S(=O)(=O)N2CCN(c3ccc(C)c(Cl)c3)CC2)c(OC)cc1Br	2%
86	Cc1ccc(/C(O)=C2\C(=O)C(=O)N(c3nncs3)C2c2cccc(Cl)c2)cc1 (centres undefined)	i
87	Cc1ccc(NC(=O)C(C)N(c2ccc(Oc3ccccc3)cc2)S(C)(=O)=O)c(C)c1 (centres undefined)	i
88	CC1=NC(C(F)(F)F)(C(F)(F)F)C2=C(CC(C)(C)CC2=O)N1Cc1ccco1	i
89	CCCOc1ccc(C(=O)NC(=S)Nc2ccccc2F)cc1	i
90	CC(C)OC(=O)c1ccc(NC(=O)c2ccc(Cn3cc(Cl)cn3)cc2)cc1	i
91	COc1ccc(Nc2nc(N)nc(CN3CCN(c4ccccc4)CC3)n2)cc1	?
92	Fc1cccc(NC(=S)N2CCN(C/C=C/c3ccccc3)CC2)c1	4%
93	O=C(Nc1ccc(F)cc1)N1CCN(Cc2ccc3c(c2)OCO3)CC1	i
94	CC(=O)c1ccc(NS(=O)(=O)c2ccc(C)c(C(N)=O)c2)cc1	i
95	CC(=O)Oc1cccc(C(=O)Nc2ccc3c(c2)C(=O)NC3=O)c1	i
96	COC(=O)c1ccccc1NC(=O)C1=C(C)NC(=S)NC1c1ccc(Cl)cc1 (centres undefined)	i

Continued.
#	SMILES	Mtb H37Rv
97	Clc1cc(Br)ccc1OCCCSc1ncccn1	i
98	COc1ccccc1C(=O)NC(=S)NC(C)c1ccccc1 (centres undefined)	7%
99	CCn1c(SCC(=O)Nc2cccc(Cl)c2)nnc1-c1cccc(C)c1	2%
100	COc1ccc(CNC(=O)CSc2nnc(-c3ccccc3)n2-c2ccccc2)cc1	i
101	O=C(CN1C(=O)c2ccccc2C1=O)NCC1(c2ccccc2)CCCC1	i
102	Cc1ccc(SC(C)C(=O)Nc2cccc(C(F)(F)F)c2)cc1 (centres undefined)	i
103	COc1ccc(C2CC(=O)C(C=NCc3ccccc3)=C(O)C2)cc1 (centres undefined)	1%
104	COc1ccc(NC(=O)NNC(=O)C(Sc2ccccc2)c2ccccc2)c(OC)c1 (centres undefined)	i
105	CCCCC(=O)Nc1ccc2oc(-c3cccc(Cl)c3Cl)nc2c1	19%
106	Cc1ccc2nc(-c3ccc(NC(=O)CSc4nc(C)cc(C)n4)cc3)sc2c1	i
107	COc1ccc(NC(=O)N(C)c2ccccc2)cc1	i
108	Cc1ccc(NC(=O)CCC2CCCC2)cc1Cl	30%

Next section:
#	SMILES	Mtb H37Rv
109	Clc1cc(Br)ccc1OCCOCCN1CCOCC1	4%
110	CCOc1ccc(NC(=O)NCCCN2CCCC2)cc1	i
111	O=C(CSc1nnc(-c2ccco2)n1-c1ccccc1)N1CCc2ccccc21	i
112	CS(=O)(=O)N1CCC(C(=O)N2CCN(Cc3ccc4c(c3)OCO4)CC2)CC1	i
113	CCCOc1ccc(C(=O)N2CCOCC2)cc1	i
114	O=C(c1ccccc1Br)N1CCN(c2ccc([N+](=O)[O-])c(NC3CC3)c2)CC1	7%
115	CCOc1ccc(NC(=O)c2cc(Cl)cc(Cl)c2NC(=O)c2ccc(Cl)cc2Cl)cc1	28%
116	CCc1ccc(N(CC(=O)Nc2ccc(F)cc2)S(C)(=O)=O)cc1	i
117	O=C(NCc1ccco1)c1cccc(NC(=O)c2ccccc2)c1	i
118	Cc1ccc(Cl)cc1NC(=O)CSc1nnc(NC(=O)c2ccccc2Br)s1	i
119	O=c1cc(O)n(-c2ccc(Cl)cc2)c(=S)[nH]1	i
120	COC(=O)c1ccc(NC(=O)c2cn(-c3ccccc3)nc2-c2ccncc2)cc1	i

Shown as labelled records: part of the list above
111	O=C(CSc1nnc(-c2ccco2)n1-c1ccccc1)N1CCc2ccccc21
  Mtb H37Rv: i
110	CCOc1ccc(NC(=O)NCCCN2CCCC2)cc1
  Mtb H37Rv: i

(listing goes on)
#	SMILES	Mtb H37Rv
121	COc1ccc(C(Nc2cc(C)ccn2)c2ccc3cccnc3c2O)cc1O (centres undefined)	i
122	CC(C)Oc1ccc(NC(=O)CCC(=O)O)cc1	i
123	CCCCOc1ccc(C(=O)Nc2cccc(NC(=O)c3ccco3)c2)cc1	1%
124	CCC(C)c1ccc(OCCn2cnc3ccccc3c2=O)cc1 (centres undefined)	6%
125	COc1ccc(OCC#CCN2CCCCCC2)cc1	i
126	COc1cc(C(=O)N2CCN(C(=O)c3cccc4ccccc34)CC2)cc(OC)c1OC	i
127	Cc1cc(Cl)ccc1N(CC(=O)Nc1c(F)cccc1F)S(=O)(=O)c1ccccc1	i
128	Cc1ccc(SCC(=O)Nc2ccc(I)cc2C)cc1	9%
129	C=CCn1c(=S)[nH]c2ccc(Br)cc2c1=O	i
130	FC(F)(F)c1cccc(NC(=S)Nc2ccc(Cc3ccncc3)cc2)c1	i
131	Cc1cc(C(=O)Oc2ccc(Cc3ccccc3)cc2)ccc1[N+](=O)[O-]	2.2µg/mL*
132	Cn1c(=O)c2c(nc(N3CCc4ccccc4C3)n2C)n(C)c1=O	i

Random excerpt: 3 records from the list.
#	SMILES	Mtb H37Rv
3	O=C(Nc1cc(Cl)cc(Cl)c1)c1c(F)c(F)c(F)c(F)c1F	27%
61	CCCSc1nnc(-c2ccccc2NC(=O)CC)c(=O)[nH]1	i
90	CC(C)OC(=O)c1ccc(NC(=O)c2ccc(Cn3cc(Cl)cn3)cc2)cc1	i

Other results follow.
#	SMILES	Mtb H37Rv
133	COc1ccc(NC(=S)N2CCN(Cc3ccco3)CC2)c(OC)c1	i
134	C=C(C)Cn1c(COc2ccc(C)cc2)nc2ccccc21	i
135	CCOC(=O)c1c(C)n(C)c2ccc(OC)c([N+](=O)[O-])c12	2%
136	N#Cc1ccccc1NC(=O)CN1CCC(C(N)=O)CC1	i
137	CCOC(=O)C(Cc1ccccc1)SC#N (centres undefined)	i

Some of the compounds tested (hit frequency here may not be typical).
